FGF22 binding: binders of recombinant human FGF22 by thermal shift; SYPRO orange fluorescence; percent of sucrose octasulfate shift, DMSO zero; Q9HCT0; calls only at 9.99 µM; AID 651658; 340,000 tested, 1.5% active;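 active = melting point raised past a set limit in the mean and every replicate; three in four hits are not shown here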
Target sequence (Q9HCT0 whole entry, looked up): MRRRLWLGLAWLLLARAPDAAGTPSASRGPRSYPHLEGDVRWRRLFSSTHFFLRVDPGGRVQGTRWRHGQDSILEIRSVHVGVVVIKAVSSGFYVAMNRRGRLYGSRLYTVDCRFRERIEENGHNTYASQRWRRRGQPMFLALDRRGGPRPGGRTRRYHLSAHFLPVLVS
Calls only; i = inactive; + = active, no number.

SMILES	FGF22 binding
COc1cccc(S(=O)(=O)N[C@@H]2CC[C@@H](CC(=O)NCc3ccc(F)cc3)O[C@@H]2CO)c1	i
C[C@@H]1CCCCO[C@@H](CN(C)Cc2ccc(Cl)c(Cl)c2)[C@H](C)CN([C@@H](C)CO)C(=O)c2cc(NS(=O)(=O)c3cn(C)cn3)ccc2O1	i
CNC[C@@H]1Oc2ccc(NC(=O)c3ccncc3)cc2CC(=O)N([C@@H](C)CO)C[C@@H]1C	i
C[C@H](CO)N1C[C@H](C)[C@@H](CN(C)Cc2ccncc2)OCCCC[C@H](C)Oc2ccc(NC(=O)Nc3ccc(F)cc3)cc2C1=O	i
C[C@@H]1CN([C@@H](C)CO)C(=O)c2cc(NS(=O)(=O)c3ccccc3)ccc2O[C@@H](C)CCCCO[C@H]1CN(C)C(=O)Cc1ccccc1	i
O=C(c1ccccc1)N(CC1CCC1)C[C@@H]1N[C@H](CO)[C@@H]1c1ccccc1	i
C[C@H]1CN([C@@H](C)CO)C(=O)c2cc(C#CCN(C)C)cnc2O[C@H]1CN(C)C(=O)c1cnccn1	i
C[C@H]1CN([C@@H](C)CO)S(=O)(=O)c2ccc(Br)cc2O[C@H]1CN(C)Cc1ccccn1	i
C[C@H](CO)N1C[C@H](C)[C@@H](CN(C)C(=O)CN(C)C)Oc2cc(-c3cncnc3)ccc2S1(=O)=O	i
N#C[C@H]1[C@H](c2ccc(-c3ccc(F)cc3)cc2)[C@@H](CO)N1c1nc(-c2ccccc2)cs1	i
CO[C@@H]1CN(C)C(=O)c2cc(NC(=O)c3cc(C)on3)ccc2OC[C@H](C)N(C(=O)C2CC2)C[C@H]1C	i
Cc1ccccc1S(=O)(=O)N[C@@H]1CC[C@@H](CCn2cc(-c3ccc(F)cc3)nn2)O[C@H]1CO	i
C[C@@H]1CCCCO[C@H](CN(C)C(=O)Nc2ccccc2)[C@H](C)CN([C@@H](C)CO)C(=O)c2cc(NS(C)(=O)=O)ccc2O1	i
CO[C@@H]1CN(C)C(=O)c2cc(NS(=O)(=O)c3ccccc3C)ccc2OC[C@@H](C)N(C)C[C@@H]1C	i
C[C@@H]1CN([C@H](C)CO)C(=O)Cc2cc(NC(=O)NC3CCCCC3)ccc2O[C@H]1CN(C)Cc1ccc(-c2ccccc2)cc1	i
C[C@@H]1CN([C@@H](C)CO)C(=O)c2cccc(NC(=O)c3cnccn3)c2O[C@H]1CN(C)C(=O)Nc1ccc(C(F)(F)F)cc1	i
COCC(=O)N1CC2(C1)CN(Cc1cccc(OC)c1)[C@H](CO)c1c2c2ccc(OC)cc2n1C	i
C[C@H](CO)N1C[C@H](C)[C@H](CN(C)C(=O)Nc2ccccc2)Oc2ccc(NC(=O)Cc3ccccc3)cc2C1=O	i
C[C@H](CO)N1C[C@H](C)[C@H](CN(C)C)Oc2ncc(-c3cc4ccccc4o3)cc2C1=O	i
C[C@H](O)C#Cc1cnc2c(c1)C(=O)N([C@H](C)CO)C[C@H](C)[C@@H](CN(C)Cc1ccc(-c3ccccc3)cc1)O2	i
COCCNC(=O)C[C@H]1C[C@H]2c3cc(NC(=O)Nc4ccc(F)cc4)ccc3O[C@H]2[C@H](CO)O1	i
COc1ccc(NC(=O)N(C)C[C@@H]2Oc3ccc(NS(=O)(=O)c4ccc(OC)cc4)cc3C(=O)N([C@@H](C)CO)C[C@H]2C)cc1	i
CN(C)C(=O)C[C@@H]1C[C@@H]2c3cc(NC(=O)c4cccnc4)ccc3O[C@@H]2[C@H](CO)O1	i
C[C@@H]1CN([C@@H](C)CO)C(=O)c2cccc(NC(=O)Nc3ccc(C(F)(F)F)cc3)c2O[C@@H]1CN(C)Cc1ccc(C(=O)Nc2ccccc2N)cc1	i
COc1ccc(CNC(=O)C[C@@H]2C[C@H]3c4cc(NS(=O)(=O)c5ccc(F)cc5)ccc4O[C@H]3[C@H](CO)O2)cc1	i
Remaining list, next part.
SMILES	FGF22 binding
CO[C@H]1CN(C)C(=O)c2cc(NC(=O)C3CC3)ccc2OC[C@H](C)N(C(=O)c2cccnc2)C[C@H]1C	i
C/C=C/c1cnc2c(c1)C(=O)N([C@H](C)CO)C[C@H](C)[C@H](CN(C)Cc1ccccc1F)O2	i
CCCN1C[C@H](C)[C@@H](OC)CN(C)C(=O)c2ccc(NC(=O)COC)cc2OC[C@@H]1C	i
C[C@@H]1CN([C@@H](C)CO)C(=O)c2cccc(NS(=O)(=O)c3ccccc3)c2O[C@@H]1CN(C)Cc1ccc(-c2ccccc2)cc1	i
CC(C)NC(=O)Nc1ccc2c(c1)C(=O)N([C@@H](C)CO)C[C@@H](C)[C@@H](CN(C)Cc1ccc3c(c1)OCO3)OCCCC[C@H](C)O2	i
CCCC(=O)Nc1ccc2c(c1)C(=O)N(C)C[C@@H](OC)[C@H](C)CN(C(=O)CN(C)C)[C@H](C)CO2	i
CCC(=O)N1C[C@H](C)[C@H](OC)CN(C)C(=O)c2cc(NC(=O)CC(F)(F)F)ccc2OC[C@@H]1C	i
CCN1[C@@H]2c3ccc(C4=CCCCC4)c(=O)n3C[C@H]1[C@H](CO)[C@H]2C(=O)NCc1ccccn1	i
COCC#Cc1cnc2c(c1)C(=O)N([C@@H](C)CO)C[C@H](C)[C@@H](CN(C)C(=O)NC1CCCC1)O2	i
COc1ccccc1S(=O)(=O)N(C)C[C@H]1Oc2ncc(-c3ccc(C)cc3)cc2C(=O)N([C@H](C)CO)C[C@@H]1C	i
O=C(NCC[C@H]1CC[C@H](NS(=O)(=O)c2cccc(F)c2)[C@@H](CO)O1)C1CCOCC1	i
CCC(=O)N1CC[C@H]2[C@@H]1c1cc(-c3cccc(OC)c3)ccc1N(C)[C@H]2CO	i
C[C@@H]1CN([C@H](C)CO)C(=O)Cc2cc(NC(=O)Nc3ccc(F)cc3)ccc2O[C@H]1CN(C)S(C)(=O)=O	i
CC(=O)N1C[C@@H](CO)[C@@H](N(C)C(=O)/C=C/c2ccccc2)C[C@H]1c1ccccc1	i
Cc1ccc(S(=O)(=O)NCC[C@@H]2CC[C@H](NS(=O)(=O)c3ccccc3Cl)[C@@H](CO)O2)cc1	i
COc1ccc2c3c(n(C)c2c1)[C@H](CO)N(Cc1ccc(F)cc1)CC31CCN(CC2CCOCC2)CC1	i
COc1ccccc1-c1cnc2c(c1)C(=O)N([C@@H](C)CO)C[C@@H](C)[C@@H](CN(C)Cc1cccc(F)c1)O2	i
C[C@@H]1CCCCO[C@H](CN(C)S(=O)(=O)c2cn(C)cn2)[C@@H](C)CN([C@H](C)CO)C(=O)c2cc(NS(C)(=O)=O)ccc2O1	i
C[C@H](CO)N1C[C@H](C)[C@H](CN(C)C(=O)c2ccccc2F)Oc2ncc(-c3cncnc3)cc2C1=O	i
COc1ccc2c3c([nH]c2c1)[C@@H](CO)N(C(=O)C1CC1)CC31CCN(S(C)(=O)=O)CC1	i
CNC[C@H]1Oc2ccc(NS(=O)(=O)c3ccc(Cl)cc3)cc2CC(=O)N([C@H](C)CO)C[C@H]1C	i
Cc1noc(C)c1S(=O)(=O)Nc1cccc2c1O[C@H](CN(C)S(=O)(=O)c1ccc(F)cc1)[C@H](C)CN([C@H](C)CO)C2=O	i
CCCCC1OC(CCc2ccccc2)CC2=C1C(=O)OC(C)(C)O2 (stereo not drawn)	i
C[C@H]1CN([C@@H](C)CO)C(=O)Cc2cc(NC(=O)CCCCCC(=O)Nc3ccccc3N)ccc2O[C@@H]1CN(C)C(=O)Nc1ccc(F)cc1	i
COCC(=O)N1C[C@@H](C)[C@H](OC)CN(C)C(=O)c2cc(NS(C)(=O)=O)ccc2OC[C@@H]1C	i

5 records picked at random from those above, as already listed:
SMILES	FGF22 binding
Cc1noc(C)c1S(=O)(=O)Nc1cccc2c1O[C@H](CN(C)S(=O)(=O)c1ccc(F)cc1)[C@H](C)CN([C@H](C)CO)C2=O	i
COc1ccccc1-c1cnc2c(c1)C(=O)N([C@@H](C)CO)C[C@@H](C)[C@@H](CN(C)Cc1cccc(F)c1)O2	i
C[C@H](CO)N1C[C@H](C)[C@H](CN(C)C)Oc2ncc(-c3cc4ccccc4o3)cc2C1=O	i
C[C@@H]1CN([C@@H](C)CO)C(=O)c2cc(NS(=O)(=O)c3ccccc3)ccc2O[C@@H](C)CCCCO[C@H]1CN(C)C(=O)Cc1ccccc1	i
C[C@@H]1CCCCO[C@H](CN(C)C(=O)Nc2ccccc2)[C@H](C)CN([C@@H](C)CO)C(=O)c2cc(NS(C)(=O)=O)ccc2O1	i

Additional entries follow.
SMILES	FGF22 binding
C[C@@H]1CN([C@H](C)CO)C(=O)c2cccc(NC(=O)c3cnccn3)c2O[C@H]1CN(C)S(=O)(=O)c1ccc(F)cc1	i
C[C@H]1CN([C@@H](C)CO)C(=O)c2c(c3ccccc3n2C)-c2ccccc2CO[C@@H]1CN(C)C(=O)Nc1ccccc1	i
O=C(Nc1cc(F)ccc1F)N[C@H]1CC[C@@H](CCn2cc(C3CCCCC3)nn2)O[C@@H]1CO	i
C[C@@H]1CN([C@H](C)CO)C(=O)c2cc(-c3ccccc3F)cnc2O[C@H]1CN(C)Cc1cccc(C(=O)O)c1	i
C[C@H]1CN([C@@H](C)CO)C(=O)Cc2cc(NC(=O)NC3CCCCC3)ccc2O[C@H]1CN(C)Cc1ccc(C(F)(F)F)cc1	i
CCCNC(=O)Nc1ccc2c(c1)OC[C@@H](C)N(C)C[C@@H](C)[C@H](OC)CN(C)C2=O	i
CO[C@@H]1CN(C)C(=O)c2ccc(NC(=O)C3CCOCC3)cc2OC[C@@H](C)N(C(C)=O)C[C@@H]1C	i
C[C@@H]1CN([C@H](C)CO)C(=O)c2cc(C#CC3(O)CCCC3)cnc2O[C@H]1CN(C)Cc1ccccc1	i
O=C(CCN1CCCCC1)N[C@@H]1CC[C@@H](CCNS(=O)(=O)c2ccccc2)O[C@H]1CO	i
CNC[C@H]1Oc2cc(C#Cc3ccncc3)ccc2S(=O)(=O)N([C@H](C)CO)C[C@H]1C	i
O=C(C1CCCCC1)N1C[C@H]2[C@@H](c3ccccc31)[C@H](CO)N2C(=O)c1ccccc1	i
CC(C)NC(=O)N(C)C[C@@H]1Oc2ccc(NC(=O)Nc3cccc4ccccc34)cc2C(=O)N([C@@H](C)CO)C[C@H]1C	i
C[C@@H]1CN([C@@H](C)CO)S(=O)(=O)c2ccc(C3=CCCCC3)cc2O[C@H]1CN(C)Cc1ccccc1F	i
Cn1cnc(CCNC(=O)[C@H]2[C@H](CO)[C@H]3Cn4c(cccc4=O)[C@@H]2N3C(=O)Nc2ccccc2)c1	i
Cc1noc(C)c1NC(=O)Nc1ccc2c(c1)C(=O)N([C@@H](C)CO)C[C@H](C)[C@@H](CN(C)S(C)(=O)=O)OCCCC[C@@H](C)O2	i
COc1ccccc1-c1ccc2c(c1)O[C@@H](CN(C)S(=O)(=O)c1ccc(F)cc1)[C@H](C)CN([C@@H](C)CO)S2(=O)=O	i
CCNC(=O)Nc1ccc2c(c1)C(=O)N(C)[C@H]1CC[C@H](CC(=O)NCCOC)O[C@@H]1CO2	i
CCC(=O)Nc1ccc2c(c1)C(=O)N(C)C[C@H](OC)[C@H](C)CN(Cc1ccccc1C(=O)O)[C@H](C)CO2	i
CC(C)NC(=O)N1C[C@@H]2[C@H](c3ccccc31)[C@@H](CO)N2Cc1ccccn1	+
COc1cccc(CNC(=O)[C@H]2[C@H](CO)[C@H]3Cn4c(ccc(C5=CCCCC5)c4=O)[C@@H]2N3)c1	i
C[C@@H]1CN([C@H](C)CO)C(=O)Cc2cc(NC(=O)Nc3ccc(F)cc3)ccc2O[C@H]1CN(C)Cc1ccc2c(c1)OCO2	i
O=C(Cc1ccccn1)NCC[C@H]1CC[C@H](NS(=O)(=O)c2ccccc2)[C@H](CO)O1	i
Nc1nc2c(ncn2[C@@H]2O[C@H](C(=O)NCC(c3ccccc3)c3ccccc3)[C@@H](O)[C@H]2O)c(=O)[nH]1	i
C[C@@H]1CN([C@@H](C)CO)C(=O)c2cccc(NS(=O)(=O)c3ccccc3)c2O[C@H]1CN(C)Cc1ccncc1	i
C[C@H]1CN([C@@H](C)CO)S(=O)(=O)c2ccc(-c3ccncc3)cc2O[C@@H]1CN(C)C(=O)C1CC1	i

In the list so far, these contain two or more sulfur atoms.
SMILES	FGF22 binding
Cc1ccc(S(=O)(=O)NCC[C@@H]2CC[C@H](NS(=O)(=O)c3ccccc3Cl)[C@@H](CO)O2)cc1	i
C[C@@H]1CCCCO[C@H](CN(C)S(=O)(=O)c2cn(C)cn2)[C@@H](C)CN([C@H](C)CO)C(=O)c2cc(NS(C)(=O)=O)ccc2O1	i
Cc1noc(C)c1S(=O)(=O)Nc1cccc2c1O[C@H](CN(C)S(=O)(=O)c1ccc(F)cc1)[C@H](C)CN([C@H](C)CO)C2=O	i
COc1ccccc1-c1ccc2c(c1)O[C@@H](CN(C)S(=O)(=O)c1ccc(F)cc1)[C@H](C)CN([C@@H](C)CO)S2(=O)=O	i

(further entries)
SMILES	FGF22 binding
C=CCN1Cc2ccccc2[C@H]2OC(c3ccc(OCCCO)cc3)=N[C@@]2(CC=C)C1=O	i
CCC(=O)N1CC2(C1)[C@H](c1ccccc1)[C@H](CO)N2Cc1ccccc1F	i
O=C(C[C@H]1C[C@H]2c3cc(NC(=O)NC4CCCC4)ccc3O[C@H]2[C@H](CO)O1)NCc1ccc(Oc2ccccc2)cc1	i
CCCc1cn(CC[C@H]2CC[C@@H](NC(=O)Nc3ccc4c(c3)OCO4)[C@@H](CO)O2)nn1	i
COc1ccccc1CN1[C@@H](CO)[C@@H]2c3ccccc3N(C(=O)C3CCOCC3)C[C@@H]21	i
C[C@@H]1CN([C@@H](C)CO)C(=O)c2cccc(NC(=O)c3ccncc3)c2O[C@H]1CN(C)CC1CC1	i
C[C@H](CO)N1C[C@H](C)[C@@H](CN(C)Cc2ccc(C(=O)O)cc2)Oc2ccc(NC(=O)Nc3ccc4c(c3)OCO4)cc2CC1=O	i
O=C(C[C@H]1CC[C@H]2[C@@H](COC[C@@H](O)CN2S(=O)(=O)c2ccccc2F)O1)NCc1ccccc1Cl	i
C[C@H]1CN([C@@H](C)CO)C(=O)Cc2cc(NC(=O)Cn3cnnn3)ccc2O[C@@H]1CN(C)Cc1ccc(-c2ccccc2)cc1	i
O=C(Nc1ccccc1)Nc1ccc2c(c1)[C@@H]1C[C@@H](CC(=O)N3CCOCC3)O[C@@H](CO)[C@@H]1O2	i

Source: PubChem (Broad Institute)

An excerpt; rates above refer to the full screens.
